From PubChem BioAssay
Env fusion inh – inhibitors of HIV-1 Env-driven cell-cell fusion, primary screen, HeLa-JRFL effector, CEM21 target cells, luciferase. AID 651610, 2012. inhibition, % at 12.3 µM. 1.1% of 360,000 active;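 active = mean replicate inhibition score of at least 50 and every replicate individually at or above 50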;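 also: 0% = plate neutral controls and 100% = maraviroc near 300 nM; one replicate is shown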
Starred values were filed as active, the others as inactive; [ ] = another dose, or the depositor's remark. Some of the compounds tested, so the mix of outcomes need not match the whole.

SMILES	Env fusion inh
CC(C)NC(=O)Nc1ccc2c(c1)CC(=O)N([C@@H](C)CO)C[C@@H](C)[C@@H](CN(C)C(=O)NC1CCCCC1)O2	10[16.7 µM]
CO[C@H]1CC[C@@H]2CCN(C)C(=O)CCCN(C)C(=O)c3cc(C#N)ccc3OC[C@@H]1O2	10[16.7 µM]
CN1CCCCC(NC(=O)c2cccc([N+](=O)[O-])c2)C1=O (stereo not drawn)	5
Clc1ccc(CN2CCN(c3ncc(Cc4ccccc4)cn3)CC2)cc1	38
C[C@@H]1CCCCO[C@H](CN(C)C(=O)c2ccccc2)[C@@H](C)CN([C@@H](C)CO)C(=O)c2cc(NS(C)(=O)=O)ccc2O1	-5[16.7 µM]
COC(=O)[C@]12C[C@H](CC(=O)N3CCC(c4ccccc4)CC3)C(=O)N(Cc3ccccc3)C1=C[C@H](C1CCCC1)O[C@@H]2C	-7
O=C(C[C@@H]1CC[C@H](NC(=O)CCN2CCCCC2)[C@@H](CO)O1)Nc1ccccc1	10[16.7 µM]
C[C@@H](NC(=O)C[C@H]1C[C@@H]2c3cc(NC(=O)c4cccnc4)ccc3O[C@@H]2[C@H](CO)O1)c1ccccc1	14[16.7 µM]
CC(=O)O[C@H]1C=C[C@@H](NC(=O)OC(C)(C)C)C1	4
C[C@H](CO)N1C[C@H](C)[C@H](CN(C)CC2CCCCC2)OCc2cn(nn2)CCCC1=O	8[16.7 µM]
C=CCOC(=O)[C@H]1[C@@H]2C(=O)O[C@@H](c3ccccc3)[C@@H](c3ccccc3)N2[C@@H](c2ccc(OCCOC(=O)[C@H]3C[C@H]4C(=O)N[C@@H](CC(C)C)C(=O)N4[C@H]3c3ccc(O)cc3)cc2)[C@]12C(=O)Nc1ccccc12	-11[16.7 µM]
CN(C)CC(=O)Nc1ccc2c(c1)[C@@H]1C[C@H](CC(=O)NC3CCCCC3)O[C@@H](CO)[C@@H]1O2	-3[16.7 µM]
CN1C(=O)c2cc(NC(=O)Nc3ccccc3F)ccc2OC[C@@H]2O[C@@H](CC(=O)NCCc3ccncc3)CC[C@H]21	-2[16.7 µM]
Cc1cc(C)cc([C@H]2C[C@]34CN(C(=O)OC(C)(C)C)S(=O)(=O)[C@H]3C[C@H]2O4)c1	0
C[C@H]1CN([C@@H](C)CO)C(=O)c2cc(NC(=O)Cn3cnnn3)ccc2O[C@@H]1CN(C)S(=O)(=O)c1ccccc1	-8[16.7 µM]
CC(C)[C@@H](C)NC(=O)N(C)C[C@@H]1OCc2ccccc2-c2ccccc2C(=O)N([C@@H](C)CO)C[C@@H]1C	8[16.7 µM]
CS(=O)(=O)N1[C@@H]2Cn3c(cccc3=O)[C@H]1[C@@H](C(=O)NCc1ccccc1)[C@@H]2CO	17[16.7 µM]
COCC(=O)N[C@H]1C=C[C@H](CC(=O)N2CCCCC2)O[C@@H]1CO	-3[16.7 µM]
C[C@@H]1CN([C@H](C)CO)C(=O)c2cc(N(C)C)ccc2O[C@@H](C)CCCCO[C@H]1CN(C)C(=O)Nc1ccccc1	23[16.7 µM]
CO[C@H]1CN(C)C(=O)c2cc(NC(=O)NC(C)C)ccc2OC[C@@H](C)N(CCC(F)(F)F)C[C@H]1C	10[16.7 µM]
CO[C@H]1CN(C)C(=O)c2cc(NC(=O)c3ccno3)ccc2OC[C@@H](C)N(S(C)(=O)=O)C[C@H]1C	11[16.7 µM]
CCC(=O)N1C[C@@H](C)[C@H](OC)CN(C)C(=O)c2ccc(NC(=O)Nc3ccc(Cl)cc3)cc2OC[C@@H]1C	-20[16.7 µM]
C[C@@H](NC(=O)C[C@H]1C[C@@H]2c3cc(NC(=O)c4ccc5c(c4)OCO5)ccc3O[C@@H]2[C@H](CO)O1)c1ccccc1	-8[16.7 µM]
COCc1cc(N2CCN(C(=O)OC(C)(C)C)C[C@@H]2C)ccc1N1CC[C@H](O)C1	-8
C[C@H](CO)N1C[C@H](C)[C@H](CN(C)C(=O)c2ccc(F)cc2)Oc2cc(C3=CCCC3)ccc2S1(=O)=O	17[16.7 µM]
Cc1ccccc1-c1ccc2c(c1)[C@@H]1C[C@H](N(C)C(=O)c3ccco3)[C@H]([C@H](C)O)CN1CC2	-9
C[C@H](CO)N1C[C@H](C)[C@H](CN(C)C(=O)Nc2ccc(F)cc2)Oc2ccc(NC(=O)CCCCCC(=O)Nc3ccccc3N)cc2CC1=O	-74[16.7 µM]
CNC(=O)C[C@@H]1CC[C@H]2[C@@H](COC[C@@H](O)CN2S(=O)(=O)c2cccc(Cl)c2)O1	-9[16.7 µM]
CO[C@H]1CC[C@H]2CCOc3ccc(C#N)cc3C(=O)N(C)C[C@H](OC)[C@@H](C)C(=O)N(C)C[C@@H]1O2	12[16.7 µM]
CO[C@H]1CN(C)C(=O)c2cc(NC(=O)Nc3ccccc3F)ccc2OC[C@@H](C)N(C(C)=O)C[C@@H]1C	0[16.7 µM]
CC(C)OC(=O)N(C)C[C@@H]1OCc2ccccc2-c2ccccc2C(=O)N([C@H](C)CO)C[C@H]1C	7[16.7 µM]
CC(C)[C@H](NC(=O)N1CCOCC1)C(=O)N1CCC[C@H]1C(=O)NCc1ccccc1	-3
CCNC(=O)c1cc2c(c(-c3cccc(C4=CCCC4)c3)n1)[C@H](CCO)N([S@@](=O)C(C)(C)C)C2	0[16.7 µM]
CC(C)NC(=O)Nc1ccc2c(c1)C(=O)N([C@@H](C)CO)C[C@H](C)[C@@H](CN(C)C(=O)C1CCCCC1)OCCCC[C@H](C)O2	-23[16.7 µM]
O=C(NCCc1ccccc1)[C@H]1[C@H](CO)[C@H]2Cn3c(cccc3=O)[C@@H]1N2Cc1ccccn1	5[16.7 µM]
COc1cccc(-c2cccc(-c3nc(C(=O)NCC(F)(F)F)cc4c3[C@H](CCO)N([S@@](=O)C(C)(C)C)C4)c2)c1	-121[16.7 µM]
O=C(Nc1cc(F)ccc1F)N[C@H]1CC[C@@H](CC(=O)N2CCc3ccccc3C2)O[C@@H]1CO	5[16.7 µM]
CO[C@@H]1CN(C)C(=O)c2ccc(NC(=O)c3ccc(-c4ccccc4)cc3)cc2OC[C@H](C)NC[C@@H]1C	30[16.7 µM]
CN1C(=O)c2cc(NC(=O)Nc3ccccc3F)ccc2OC[C@H]2O[C@@H](CC(=O)NCCc3ccncc3)CC[C@H]21	-7[16.7 µM]
O=C(C[C@H]1C=C[C@H](NC(=O)Nc2cccc(F)c2)[C@@H](CO)O1)NCC1CCCCC1	-14[16.7 µM]

Taken from the entries so far (3 entries):
SMILES	Env fusion inh
CO[C@H]1CN(C)C(=O)c2cc(NC(=O)c3ccno3)ccc2OC[C@@H](C)N(S(C)(=O)=O)C[C@H]1C	11[16.7 µM]
CCC(=O)N1C[C@@H](C)[C@H](OC)CN(C)C(=O)c2ccc(NC(=O)Nc3ccc(Cl)cc3)cc2OC[C@@H]1C	-20[16.7 µM]
C[C@@H](NC(=O)C[C@H]1C[C@@H]2c3cc(NC(=O)c4ccc5c(c4)OCO5)ccc3O[C@@H]2[C@H](CO)O1)c1ccccc1	-8[16.7 µM]

Ordered by number of heavy atoms (smallest number first): some entries from above.
SMILES	Env fusion inh
CNC(=O)C[C@@H]1CC[C@H]2[C@@H](COC[C@@H](O)CN2S(=O)(=O)c2cccc(Cl)c2)O1	-9[16.7 µM]
O=C(C[C@@H]1CC[C@H](NC(=O)CCN2CCCCC2)[C@@H](CO)O1)Nc1ccccc1	10[16.7 µM]
CC(C)[C@H](NC(=O)N1CCOCC1)C(=O)N1CCC[C@H]1C(=O)NCc1ccccc1	-3
CO[C@H]1CC[C@H]2CCOc3ccc(C#N)cc3C(=O)N(C)C[C@H](OC)[C@@H](C)C(=O)N(C)C[C@@H]1O2	12[16.7 µM]
CC(C)[C@@H](C)NC(=O)N(C)C[C@@H]1OCc2ccccc2-c2ccccc2C(=O)N([C@@H](C)CO)C[C@@H]1C	8[16.7 µM]
COC(=O)[C@]12C[C@H](CC(=O)N3CCC(c4ccccc4)CC3)C(=O)N(Cc3ccccc3)C1=C[C@H](C1CCCC1)O[C@@H]2C	-7

(more compounds)
SMILES	Env fusion inh
O=C(C[C@H]1CC[C@H]2[C@@H](COC[C@H](O)CN2C(=O)c2ccccc2F)O1)NCc1ccc(Cl)c(Cl)c1	19[16.7 µM]
COc1ccc(CN2CC3(CN(C(C)=O)C3)c3c([nH]c4cc(OC)ccc34)[C@H]2CO)cc1	9[16.7 µM]
CCN1[C@@H]2c3ccc(-c4cccc(F)c4)c(=O)n3C[C@@H]2[C@@H](CO)[C@@H]1C(=O)N1CCCCC1	-12[16.7 µM]
COC(=O)C[C@@H]1CC[C@H]2[C@@H](COC[C@H](O)CN2S(=O)(=O)c2cn(C)cn2)O1	-18[16.7 µM]
CCCNC(=O)Nc1ccc2c(c1)OC[C@H](C)N(C(=O)c1ccccc1F)C[C@H](C)[C@@H](OC)CN(C)C2=O	15[16.7 µM]
C/C=C/c1cccc(-c2nc(C(=O)Nc3nccs3)cc3c2[C@@H](CCO)N(C(=O)NC(C)C)C3)c1	-1[16.7 µM]
CO[C@@H]1CN(C)C(=O)c2cc(NC(C)=O)ccc2OC[C@H](C)N(C(=O)c2ccc(F)cc2)C[C@H]1C	-11[16.7 µM]
C[C@H]1CN([C@@H](C)CO)C(=O)c2cc(-c3ccc(F)cc3)cnc2O[C@@H]1CN(C)C(=O)c1ccncc1	4[16.7 µM]
O=C([C@@H]1[C@@H](CO)[C@@H]2Cn3c(cccc3=O)[C@H]1N2Cc1cocn1)N1CCCCC1	7[16.7 µM]
O=C(NCc1cccc(F)c1)[C@@H]1[C@@H](CO)[C@@H]2Cn3c(ccc(-c4cccnc4)c3=O)[C@H]1N2CC1CC1	67*[16.7 µM]
CO[C@@H]1CC[C@@H]2CCOc3ccc(C#N)cc3C(=O)N(C)C[C@H](C)C(=O)N(C)C[C@H]1O2	24[16.7 µM]
COc1cccc(S(=O)(=O)N(C)C[C@H]2OCc3ccccc3-c3c(n(C)c4ccccc34)C(=O)N([C@H](C)CO)C[C@H]2C)c1	-151[16.7 µM]
COC(=O)[C@H](Cc1ccccc1)NC(=O)[C@H]1O[C@@H](n2cnc3c(=O)[nH]c(N)nc32)[C@H](O)[C@@H]1O	-5
S=C1NCCOc2ccccc21	6
COc1ccc(NC(=O)O[C@H]2[C@H](OC(=O)Nc3ccc4c(c3)OCO4)[C@H](OC(=O)Nc3ccc4c(c3)OCO4)[C@@H](OC)O[C@@H]2CO)cc1	4[16.7 µM]
O=C([C@H]1[C@H](CO)[C@H]2Cn3c(cccc3=O)[C@@H]1N2CC1CC1)N1CCc2ccccc2C1	4[16.7 µM]
CNC[C@@H]1Oc2ccc(NC(=O)CCCN(C)C)cc2CC(=O)N([C@@H](C)CO)C[C@H]1C	-5[16.7 µM]
COc1ccc2c3c(n(C)c2c1)[C@H](CO)N(C(=O)Nc1ccc(F)cc1)CC31CN(C(=O)Nc2c(C)noc2C)C1	5[16.7 µM]
COc1cccc(-c2ccc3c(c2)[C@@H]2[C@@H](CCN2C(=O)C2CCCC2)[C@@H](CO)N3)c1	28[16.7 µM]
COc1ccc2c3c(n(C)c2c1)[C@H](CO)N(C(=O)Nc1ccc(F)cc1)CC31CCN(C(=O)CN2CCOCC2)CC1	-2[16.7 µM]
COCC(=O)N(C)C[C@H]1Oc2cc(-c3ccccc3F)ccc2S(=O)(=O)N([C@H](C)CO)C[C@H]1C	-2[16.7 µM]
COc1cccc(-c2cn(CC[C@H]3CC[C@H](NS(=O)(=O)Cc4ccccc4)[C@@H](CO)O3)nn2)c1	-3[16.7 µM]
NC(=O)c1c(N)[nH]c(C(=O)c2ccccc2)c1-c1ccc(Br)cc1	7
O=C1[C@@H]2[C@@H](CC(COc3ccccc3)=C3[C@@H](c4ccccc4)OB(O)C[C@@H]32)C(=O)N1Cc1ccccc1	26[16.7 µM]
O=C(C[C@@H]1C=C[C@H](NC(=O)c2ccccc2)[C@H](CO)O1)NCc1ccc(Oc2ccccc2)cc1	61*[16.7 µM]
C[C@H]1CN([C@@H](C)CO)C(=O)c2c(c3ccccc3n2C)-c2ccccc2CO[C@@H]1CN(C)C(=O)[C@H](Cc1ccccc1)N(C)C	20[16.7 µM]
C[C@@H]1CN([C@H](C)CO)C(=O)c2cc(NC(=O)CCCN(C)C)ccc2O[C@@H]1CN(C)C(=O)NC1CCCCC1	5[16.7 µM]
Cc1c(-c2ccccc2)nnn1-c1ccc(F)c(Cl)c1	-49
COc1ccc(NC(=O)Nc2ccc3c(c2)[C@H]2C[C@H](CC(=O)NCc4ccccn4)O[C@H](CO)[C@H]2O3)cc1	0[16.7 µM]
COc1ccc2c(c1)[C@@]1(OCCC=C[C@H]1C)C(=O)N2Cc1ccccc1C(F)(F)F	8
COc1ccc(C2NC(=S)N(Cc3ccc(Cl)cc3)C(C)=C2C(C)=O)cc1 (stereo not drawn)	25
C[C@H]1CN([C@@H](C)CO)C(=O)c2cc(NC(=O)Cn3cnnn3)ccc2O[C@@H]1CN(C)Cc1ccc(C(F)(F)F)cc1	-6[16.7 µM]
CC(C)NC(=O)Nc1ccc2c(c1)C(=O)N([C@@H](C)CO)C[C@@H](C)[C@H](CN(C)C(=O)Nc1ccccc1)OCCCC[C@@H](C)O2	-3[16.7 µM]
CO[C@H]1CN(C)C(=O)c2cc(NC(=O)c3ccccc3)ccc2OC[C@H](C)N(CC2CC2)C[C@H]1C	2[16.7 µM]
Nc1[nH]c(C(=O)c2ccccc2)c(-c2ccccn2)c1C(=O)c1c[nH]c2ccc(F)cc12	-5
COc1cccc(CNC(=O)[C@H]2CCCN2C(=O)[C@H]2CCCN2C(=O)c2ccc(OC(F)(F)F)cc2)c1	-13
COCc1cc(N2CCNC[C@@H]2C)ccc1N1CCN(Cc2ccccc2)[C@H](C)C1	12
COc1ccc(C2CC(=O)C(c3cccc(C)c3)=CN2Cc2ccccc2)cc1 (stereo not drawn)	-15
COc1ccc(S(=O)(=O)N(C)C[C@H]2Oc3ccc(NC(=O)Nc4cccc5ccccc45)cc3CC(=O)N([C@@H](C)CO)C[C@H]2C)cc1	-7[16.7 µM]
CO[C@H]1CN(C)C(=O)c2ccc(NS(=O)(=O)c3cccc(Cl)c3)cc2OC[C@@H](C)NC[C@H]1C	-14[16.7 µM]
